Screening results as filed in PubChem BioAssay.
RGS16-Gao – modulates binding between human RGS16 and Galphao; O15492+P09471; bead-based flow cytometry RGS16-Galphao binding, fluorescence; actives lie on both sides; AID 1441; actives 0.38% (n = 220,000); binding response (% of control), % at 10 µM;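 active = below 25% or above 175%, edge rows of some plates excepted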;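 also: Galphao activated by GDP with aluminum fluoride before binding; 100% = wells without compound and 0% = beads without RGS; some results beyond the cut were filed as inactive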
PKD1 kinase inh – blocks activity of human protein kinase D1; AID 797; PKD1 kinase fluorescence polarization assay; Q15139; inhibition, %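 (about 10 µM by stock and volumes)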; actives 0.056% (n = 200,000);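 active = inhibition of 50% or more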;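 also: controls were vehicle for no effect and a reference inhibitor for full effect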
Target sequence (Q15139 whole entry, looked up): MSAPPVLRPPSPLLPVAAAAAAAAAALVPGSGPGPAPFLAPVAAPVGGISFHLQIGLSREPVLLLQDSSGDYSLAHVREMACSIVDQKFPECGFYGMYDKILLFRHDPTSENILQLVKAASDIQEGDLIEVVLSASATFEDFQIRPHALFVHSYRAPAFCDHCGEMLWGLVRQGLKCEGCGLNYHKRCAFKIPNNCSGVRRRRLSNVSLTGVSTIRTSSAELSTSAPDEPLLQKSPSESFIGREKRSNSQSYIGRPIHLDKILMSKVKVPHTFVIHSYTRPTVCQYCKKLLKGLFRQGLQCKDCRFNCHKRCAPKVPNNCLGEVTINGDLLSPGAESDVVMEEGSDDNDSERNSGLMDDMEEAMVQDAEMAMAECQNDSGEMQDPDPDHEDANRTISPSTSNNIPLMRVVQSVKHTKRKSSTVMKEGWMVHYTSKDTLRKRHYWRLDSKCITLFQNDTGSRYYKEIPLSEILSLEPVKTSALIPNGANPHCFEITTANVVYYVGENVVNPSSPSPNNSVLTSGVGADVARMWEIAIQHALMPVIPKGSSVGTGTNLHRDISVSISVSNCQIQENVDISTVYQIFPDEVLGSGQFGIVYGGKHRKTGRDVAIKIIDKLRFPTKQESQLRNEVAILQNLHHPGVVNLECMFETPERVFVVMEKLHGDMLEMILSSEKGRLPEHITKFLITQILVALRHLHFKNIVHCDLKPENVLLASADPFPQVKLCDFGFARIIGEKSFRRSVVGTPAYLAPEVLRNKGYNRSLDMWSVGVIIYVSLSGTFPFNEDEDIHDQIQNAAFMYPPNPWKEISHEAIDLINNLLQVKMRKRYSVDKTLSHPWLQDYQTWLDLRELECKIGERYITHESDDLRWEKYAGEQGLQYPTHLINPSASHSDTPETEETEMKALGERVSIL
HSV augment – increases HSV replication in cells | HSV replication augmentation in cells, fold increase | maximum fold increase | actives 0.005% (n = 220,000) | AID 1956;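 active = peak rise of 1.5-fold or more in the series; tested in PC3 cells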;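 also: first round at 10 µM; read as green reporter fluorescence; hits show the peak of a series up to 25 µM; 1 = signal of infected wells without compound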
INS promoter inh – TRM-6 insulin promoter activity inhibition | TRM-6 cells (human fetal islet line), insulin promoter-eGFP reporter, imaging; reporter expression induced with tamoxifen | inhibition, % at 2 µM | actives 0.9% (n = 130,000) | AID 1273;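 active = inhibition above the mean plus 3 SD, with well images judged a real hit on visual review, cut at about 60% in these data, passing the limit was not always enough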
GALR2 agonist – activates the human galanin receptor 2. O43603. GALR2-expressing cells, agonist activation read-out. activation, %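 (tested at 5 µM)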. actives 0.48% (n = 140,000). AID 803;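 active = above mean plus 3 SD of all compounds, about 5% in these data, not always enough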;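 also: 0% = vehicle buffer wells and 100% = reference agonist at full effect; tested in CHO reporter cells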
INS promoter inh cell count – recorded beside INS promoter inh, whose call it bears; normalized cell count, %; measured here: cell count, toxicity; reference of the scale not given here;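 cells exposed to compound for 48 h; stained nuclei by imaging scaled within each plate; lower means fewer cells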
HSV augment primary fold – second read-out of HSV augment, no call of its own (marks repeat the call); fold increase; compound at 10 µM; measured here: primary screen fold increase 10 uM; tested in PC3 cells;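 GFP signal in the first replicate; 1 = infected wells without compound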
* marks the source's active call; other numbers are inactive results; i = inactive; . = no result given.

entry	SMILES	RGS16-Gao	PKD1 kinase inh	HSV augment	HSV augment primary fold	INS promoter inh	INS promoter inh cell count	GALR2 agonist
1	Cc1nn(Cc2ccccc2)c(Cl)c1/C=C/C(=O)OC(C(=O)NC(N)=O)C(C)C (stereo not drawn)	102	-5	i	0.98	42	110	.
2	CCCOc1ccc(/C(O)=C2/C(=O)C(=O)N(CCCOC)C2c2ccncc2)cc1 (stereo not drawn)	99	-6	i	0.88	27	63	-3.2
3	O=C(CCN1CCCCC1)Nc1cccc(Cl)c1	106	-2	i	0.75	-14	91	-1.0
4	O=[N+]([O-])c1cccc(-n2nnnc2CN2CCCCCC2)c1	93	-6	i	0.86	0	114	-1.9
5	Cc1[nH]nc2c1C(c1cnn(C)c1)C(C#N)=C(N)O2 (stereo not drawn)	107	10	i	0.72	.	.	.
6	O=Cc1cn(CCC(=O)O)nc1-c1cccc2ccccc12	98	-5	i	1.1	-43	64	.
7	COC(=O)c1cc(C#N)c(Oc2ccc(OC)cc2)nc1C	106	12	i	0.93	-15	118	-2.3
8	COc1ccccc1CC(=O)Nc1cccc(C(=O)Nc2nccs2)c1	110	.	i	0.99	.	.	.
9	COCCOC(=O)C1=C(C)OC(N)=C(C#N)C1c1ccc2c(c1)OCO2 (stereo not drawn)	131	0	i	1	-18	143	0.1
10	Cc1ccn2c(C(=O)NN=C3CCCCCCC3)c(C)nc2c1	105	-1	i	0.94	.	.	.
11	CC1=CC(C)(C)Nc2ccc(Cc3ccc4c(c3)C(C)=CC(C)(C)N4)cc21	100	.	i	1.1	.	.	.
12	COc1cc(S(=O)(=O)N2CCC(C(N)=O)CC2)c(C)cc1C	80	-3	i	0.96	25	104	-2.0
13	NNC(=O)c1ccc(Oc2cc(Cl)cc(Cl)c2)o1	97	.	i	1	.	.	.
14	COc1ccc(S(=O)(=O)N2CCN(C(=O)NC3CCCCC3)CC2)cc1OC	103	2	i	0.82	31	122	-2.3
15	CN(C(=S)NC(=O)CCCOc1ccc(Cl)cc1Cl)c1ccccc1	103	-5	i	1	0	94	-2.6
16	COc1ccc(NC(=O)C2C3C=CC(C3)C2C(=O)O)cc1 (stereo not drawn)	95	.	i	1.1	.	.	.
17	CCN(CC)S(=O)(=O)c1ccc(N(C)C)c(NC(=O)C2CCCC2)c1	101	.	i	1.1	.	.	.
18	CC(C)C[C@H](NC(=O)N1CCCCCC1)C(=O)O	94	.	i	0.83	.	.	.
19	O=C(O)C1(P(=O)(c2ccc(Cl)cc2)c2ccc(Cl)cc2)CC1	97	3	i	1.1	-5	102	.
20	Cc1nnsc1-c1nnc(SCC(=O)c2ccc(F)cc2)n1C1CC1	100	.	i	0.93	.	.	.
21	CC(C)NC(=S)N/N=C1\CCCCC1C1CCCCC1 (stereo not drawn)	97	-6	i	1	-25	102	-0.8
22	O=C(Nc1ccc(Cl)cc1C(=O)O)c1ccc2c(c1)C(=O)N(Cc1ccco1)C2=O	114	13	i	0.95	11	88	-1.5
23	CCN(CC)S(=O)(=O)c1ccc(N2CCCC2)c(C(=O)OCC(=O)N2CCCC2)c1	98	-5	i	0.9	-93	135	.
24	O=S(=O)(c1ccc2c(c1)N(Cc1ccc(Cl)cc1)C1CCCN21)N1CCOCC1 (stereo not drawn)	111	-13	i	1.2	0	140	-3.3
25	CCCN1C(=O)C2C(C(=O)Nc3cccc(OC)c3)C3C=CC2(O3)C1C(=O)NC1CCCCC1 (stereo not drawn)	97	-4	i	0.75	50	119	-1.2
26	O=C(c1cccs1)N1CCN(S(=O)(=O)N2CCCCC2)CC1	99	-8	i	0.93	10	143	-1.6
27	COc1nc(NC(C)(C)C)nc(Oc2ccc(=O)n(C)n2)n1	99	-12	i	0.93	.	.	-2.0
28	O=S(=O)(NCCSc1ccc(Cl)cc1)c1ccc2c(c1)OCCO2	88	-14	i	0.77	.	.	-2.5
29	Cc1ccc(NC(=O)CSc2nnc(-c3ccc(S(=O)(=O)N4CCCC4)cc3)o2)cc1C	99	-3	i	1	45	83	-1.4
30	Cc1ccn2c(NC(C)(C)C)c(-c3cccs3)nc2c1	94	-4	i	1	.	.	.
31	CCc1cccc2c(/C=N/NC(=O)c3cccc(S(=O)(=O)Nc4ccccc4Cl)c3)c[nH]c12	100	-11	i	0.85	10	105	-0.4
32	CCOC(=O)Cc1csc(NC(=S)NC(=O)c2ccccc2Br)n1	104	-10	i	0.86	7	107	0.5
33	C=C(C)Cn1c(SCC(=O)N/N=C/c2ccccc2OCC(=O)O)nnc1-c1ccc(Br)cc1	110	.	i	0.97	.	.	.
34	CCOCCCNC(=O)c1cc(C)nn1-c1ccccc1	101	0	i	0.89	.	.	-1.2
35	CCCOC1OC(=O)c2c1ccc(OC)c2OC (stereo not drawn)	128	1	i	0.99	.	.	0.8
36	CCCCc1cc2c(cn1)=C(OC(=O)c1cnc3ccccc3n1)C(C)(OC(=O)CC)C(=O)C=2 (stereo not drawn)	96	.	i	1	.	.	.
37	COc1cc2ccccc2cc1C(=O)N1CCN(C)CC1	99	-13	i	0.74	7	185	-2.5
38	CC1CCCCN1C(=O)C(Cc1ccccc1)N1C(=O)C2CCCCC2C1=O (stereo not drawn)	98	-6	i	1	-30	84	-0.9
39	CCC(=O)N(Cc1ccco1)C1CC(=O)N(c2ccccc2)C1=O (stereo not drawn)	105	4	i	0.84	.	.	-0.1
40	CSc1cc(-c2ccc(Cl)cc2)[nH]c(=O)c1C#N	96	1	i	1.2	.	.	.

2 of these compounds, set out differently.
34	CCOCCCNC(=O)c1cc(C)nn1-c1ccccc1
  RGS16-Gao: 101
  PKD1 kinase inh: 0
  HSV augment: i
  HSV augment primary fold: 0.89
  INS promoter inh: .
  INS promoter inh cell count: .
  GALR2 agonist: -1.2

35	CCCOC1OC(=O)c2c1ccc(OC)c2OC (stereo not drawn)
  RGS16-Gao: 128
  PKD1 kinase inh: 1
  HSV augment: i
  HSV augment primary fold: 0.99
  INS promoter inh: .
  INS promoter inh cell count: .
  GALR2 agonist: 0.8

Next section
entry	SMILES	RGS16-Gao	PKD1 kinase inh	HSV augment	HSV augment primary fold	INS promoter inh	INS promoter inh cell count	GALR2 agonist
41	O=C(NCCc1c[nH]c2ccccc12)C(=O)NCC1OCCCN1S(=O)(=O)c1cc(F)ccc1F (stereo not drawn)	107	-7	i	0.97	-33	97	.
42	Cc1ccc2c(c1)COc1c3ccc(C(=O)N4CCOCC4)cc3nn1-2	104	.	i	1	.	.	.
43	NC(=O)[C@@H]1CCCNc2c(F)cc([N+](=O)[O-])cc2C(=O)N[C@@H](CO)C(=O)N[C@@H](Cc2ccc(O)cc2)C(=O)N1	102	-17	i	0.75	23	69	-1.3
44	CC(C)N(C(=S)NC1CCCCC1)c1ccccc1	105	-1	i	1	7	115	.
45	COCCCNCCOc1ccccc1-c1ccccc1	99	-3	.	.	-17	84	-0.1
46	Fc1ccccc1Nc1nc(NCc2ccco2)nc(N2CCOCC2)n1	103	0	i	0.99	5	57	.
47	O=C(c1ccc(Cn2c(=S)[nH]c3cc4c(cc3c2=O)OCO4)cc1)N1CCN(c2ccccc2)CC1	99	1	i	0.9	7	117	.
48	COC(=O)c1ccccc1NC(=O)Cn1ccnc1	97	-7	i	0.75	-30	89	-2.8
49	O=C(Nc1cc2ccccc2oc1=O)C1CCCCC1	105	-8	.	.	-29	160	-1.2
50	CCOC(=O)N1CCN(C(=O)c2ccc3nc4ccsc4c(=O)n3c2)CC1	94	-8	.	.	.	.	-1.2
51	O=C1CC(c2cccs2)c2cc3c(cc2N1)OCO3 (stereo not drawn)	96	-1	i	0.95	-15	79	-3.6
52	Cc1cccc(C)c1NC(=O)CCS(=O)(=O)c1cccc2nsnc12	105	2	i	0.92	54	59	-0.1
53	Cc1ccc(-n2ncc3c(NNC(=O)Cc4ccccc4)ncnc32)cc1	97	1	i	0.81	-15	145	0.0
54	NC(=O)Cc1ccc(Nc2nnc(-c3ccc(O)cc3)c3ccccc23)cc1	99	3	i	0.93	.	.	-1.4
55	O=c1[nH]c(Nc2nc3ccccc3o2)nc2c1CCCC2	98	9	i	0.49	.	.	-1.3
56	O=C(COC(=O)CNC(=O)c1ccc(Cl)cc1)Nc1ccc(Cl)cc1C(F)(F)F	102	2	i	1	3	80	-0.2
57	Cc1ccc(CN2CCN(Cc3cccc(-n4cccn4)c3)CC2CCO)cc1 (stereo not drawn)	111	0	i	0.89	.	.	.
58	O=c1c(C(c2ccc(Cl)cc2)c2c(O)nc3n(c2=O)CCS3)c(O)nc2n1CCS2	97	.	i	1	.	.	.
59	COc1cc(OC)cc(-c2nnc(SCc3cccc(C(=O)O)c3)o2)c1	99	4	i	0.83	-17	116	-0.3
60	COCCCNC(=O)Cn1cnc2sc(C)c(S(=O)(=O)N3CCN(c4ncccn4)CC3)c2c1=O	101	-5	i	0.91	.	.	.
61	Cc1ccccc1NC(=S)N(Cc1cccs1)C1CCCCC1	101	0	i	0.94	.	.	.
62	CCC(C)NC(=O)Cn1nc(C(F)(F)F)c2c1CCCC2 (stereo not drawn)	100	2	i	0.91	-162	64	-1.0
63	CC(C)Oc1ccc(C(CC(=O)O)NC(=O)c2cccs2)cc1 (stereo not drawn)	.	-1	i	0.95	19	51	-3.9
64	CCOc1ccc2nc(N3CCCC(C(=O)N4CCN(CC)CC4)C3)sc2c1 (stereo not drawn)	106	-17	i	0.91	.	.	-0.9
65	CCn1cc(C(=O)N2CCN(c3ccc([N+](=O)[O-])cc3)CC2)c(=O)c2ccc(C)nc21	102	-6	i	1.1	-41	72	.
66	CCS(=O)(=O)Nc1cccc(C(=O)CC2(O)C(=O)Nc3ccccc32)c1 (stereo not drawn)	100	3	i	1	3	100	-3.2
67	O=C1N/C(=C/c2ccsc2)C(=O)N1c1ccccc1	103	-12	i	0.94	.	.	.
68	CC(=O)c1cccc(NC(=S)NC(=O)Cc2ccccc2)c1	105	1	i	1	.	.	.
69	Cc1nn2c(N3CCN(C)CC3)c3c(nc2c1-c1ccccc1)CCCC3	104	.	i	0.77	.	.	.
70	CCOc1ccc(N2C(=O)c3cccnc3C2Nc2ccc(Cl)cc2)cc1 (stereo not drawn)	94	3	i	1	-50	168	-2.5

Compounds shown so far containing bromine:
entry	SMILES	RGS16-Gao	PKD1 kinase inh	HSV augment	HSV augment primary fold	INS promoter inh	INS promoter inh cell count	GALR2 agonist
32	CCOC(=O)Cc1csc(NC(=S)NC(=O)c2ccccc2Br)n1	104	-10	i	0.86	7	107	0.5
33	C=C(C)Cn1c(SCC(=O)N/N=C/c2ccccc2OCC(=O)O)nnc1-c1ccc(Br)cc1	110	.	i	0.97	.	.	.

Remaining list, next part.
entry	SMILES	RGS16-Gao	PKD1 kinase inh	HSV augment	HSV augment primary fold	INS promoter inh	INS promoter inh cell count	GALR2 agonist
71	CSc1ccc(C2c3[nH]c4ccccc4c3CCN2C(=O)c2ccnn2C)cc1 (stereo not drawn)	56	-4	i	0.76	5	97	.
72	O=C(CN1C(=O)CSC1=O)Nc1ccc(F)c(F)c1F	74	-2	i	0.88	.	.	-0.4
73	CCC[C@@H]1C[C@@]1(CCC)[C@@H](NP(=O)(c1ccccc1)c1ccccc1)c1ccc(C(=O)OC)cc1	105	2	i	0.74	45	118	-1.8
74	Cc1ccc2c(c1)C(O)(c1c(C)[nH]c3ccccc13)C(=O)N2 (stereo not drawn)	90	-5	i	0.95	43	74	-1.4
75	Cc1ccccc1Cn1nnc(-c2ccc3c(c2)OCO3)n1	94	5	i	0.97	0	106	-4.9
76	COc1cc(C2c3c(-c4cc(Cl)c(C)cc4O)n[nH]c3C(=O)N2Cc2cccnc2)ccc1O (stereo not drawn)	95	-7	i	0.9	.	.	2.4
77	O=C(COc1ccc2c3c(c(=O)oc2c1)CCC3)c1ccc2c(c1)OCO2	99	-9	i	0.89	64	38	-2.8
78	CCOC(=O)C1CCN(C(=O)c2ccccc2N(C)S(C)(=O)=O)CC1	100	-3	i	1.3	45	143	-2.9
79	COc1ccc(N2CCN(c3ccc([N+](=O)[O-])cc3Cl)CC2)cc1	110	6	i	0.93	.	.	-0.1
80	O=S(=O)(NCc1ccccc1)c1ccc(S(=O)(=O)N2CCCCC2)cc1	102	4	i	1.1	.	.	-0.4
81	CCN(CC)S(=O)(=O)c1cccc(C(=O)N/N=C/c2cc(OC)c(O)c(OC)c2)c1	105	-5	i	0.93	.	.	0.0
82	O=C(CCOc1ccccc1)Nc1cccc([N+](=O)[O-])c1	99	-2	i	1	.	.	.
83	C#CCOC(=O)c1ccccc1C(=O)OCC#C	93	-9	i	0.86	-100	81	-1.2
84	CCC(C)(C(=O)NC1CCCCC1)N(C(=O)CNC(=O)c1ccccc1)c1c(C)n(C)n(-c2ccccc2)c1=O (stereo not drawn)	97	-4	i	0.93	.	.	.
85	O=C(O)CCC(=O)N1CCc2cc(S(=O)(=O)N3CCN(c4ccc(F)cc4)CC3)ccc21	103	2	i	0.84	.	.	-3.0
86	COc1ccc(C)cc1NC(=O)CSc1nnc(-c2ccco2)n1N	100	-1	i	0.83	-14	138	-1.5
